# Cruzain inh Det – cruzain (T. cruzi) inhibition with detergent | purified cruzain, Z-FR-AMC fluorescence, 0.01% Triton | 0.43% of 200,000 active | P25779 | Potency, µM, inactives show max response, negative = inhibition, usual class: inhibitors;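 note: plate controls were neutral wells for no effect and buffer without enzyme for full effect; nearly all actives have a fitted effect of over 40% in size; top concentration of the series not given in the record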
# Target sequence (P25779 123-467 limits assumed): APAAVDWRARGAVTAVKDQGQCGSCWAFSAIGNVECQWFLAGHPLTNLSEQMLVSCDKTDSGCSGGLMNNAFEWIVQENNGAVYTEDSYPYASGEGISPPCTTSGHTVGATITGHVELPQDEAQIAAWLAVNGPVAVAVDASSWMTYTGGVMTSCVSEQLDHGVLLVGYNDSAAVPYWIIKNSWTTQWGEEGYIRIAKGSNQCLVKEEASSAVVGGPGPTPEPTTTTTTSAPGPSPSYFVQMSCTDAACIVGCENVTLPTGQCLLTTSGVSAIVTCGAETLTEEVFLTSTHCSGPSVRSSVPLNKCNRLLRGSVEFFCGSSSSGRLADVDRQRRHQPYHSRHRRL
#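 Enzyme 1.5 nM, Z-FR-AMC 2 uM, NaOAc 100 mM pH 5.5, DTT 5 mM, Triton X-100 0.01%; 15 min RT compound preincubation; kinetic ex360/em450, 60 s delta.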
# Marburg entry inh – Marburg virus entry inhibition; Marburg virus pseudotyped entry inhibition, cell reporter; control for the full effect not named in the record; about a third of the inactives were read at about 46 µM; Potency, µM (series often up to 37.8 µM), inactives show at the top dose activity change, negative = inhibition, usual class: inhibitors; 1.8% of 300,000 active; AID 540276; active = well fitted inhibition curve with a large enough effect; inconclusive = small, poorly fitted or top-dose-only effect, or effect the other way; inactive = flat fitted curve, though single readings scatter; tested in HEK293 cells; about a fifth of its hits are not listed in these tables; note: % is set by controls: 0 for no effect and ±100 for the full control effect; luciferase read-out
# RE007 growth inh – less growth of the S. pombe RE007 Vpr strain. 0.21% of 360,000 active. S. pombe RE007 Vpr strain, BacTiter-Glo ATP luminescence, 24 h; control for the full effect not named in the record. Potency, µM (titrated, usually from 92.2 µM), for inactives: at the top dose activity change, negative = less growth. AID 651644; active = well fitted falling curve with a large enough effect; inconclusive = small, poorly fitted or top-dose-only effect; inactive = no such curve, though single readings can be large or run the other way;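 note: % is set by controls: 0 for no effect and ±100 for the full control effect; nearly all actives have a fitted effect of over 50% in size; the assay follows cell death caused by Vpr and the record does not say whether a fall means rescue or toxicity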
#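 Fission yeast strain RE007, carrying one chromosomally integrated HIV-1 vpr copy, was seeded at OD 0.01 in PMG+AL medium with 23 nL pinned compound. After 24 h at 30 °C and 99% humidity, viability was read by BacTiter-Glo luminescence.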
# 2A StopGo – FMDV 2A StopGo reporter, luciferase signal. human cells with a luciferase reporter of 2A StopGo recoding; control for the full effect not named in the record. Potency, µM (top dose mostly 57.9 µM), inactives show at the highest dose signal change, negative = less light. 1.2% of 410,000 active. AID 1159524; active = well fitted falling curve with a large enough effect; inconclusive = small, poorly fitted or top-dose-only effect; inactive = no such curve, though single readings can be large or run the other way; tested in HEK293T cells; note: % is set by controls: 0 for no effect and ±100 for the full control effect; nearly all actives have a fitted effect of over 45% in size; luciferase light after 4 h
# Cruzain noTriton – blocks cruzain activity in detergent-free assay; Potency, µM, inactives show max response, negative = inhibition, most hits filed as inhibitors; AID 1476; P25779; 2.3% of 200,000 active; purified cruzain, Z-FR-AMC fluorescence, no detergent;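 note: plate controls were enzyme without inhibitor for no effect and buffer without enzyme for full effect; nearly all actives have a fitted effect of over 40% in size; top concentration of the series not given in the record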
#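 Detergent-free condition (0.00005% Triton X-100) in acetate buffer pH 5.5 with DTT. 1.5 nM enzyme and compound were pre-mixed 15 min, then 2 uM Z-FR-AMC substrate added; reaction progress from fluorescence change between first and third reads (60 s).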
# NS1 inh – blocks influenza NS1 protein function. Potency, µM (highest dose often 46.1 µM), for the others: top-dose activity, positive = more growth. 0.4% of 270,000 active. S. cerevisiae slowed by influenza A NS1, growth recovery by OD600. AID 2326; active means well fitted rising curve with a large enough effect; inconclusive means small, poorly fitted or top-dose-only effect; inactive means no such curve, though single readings can be large or run the other way; note: nearly all actives have a fitted effect of over 50% in size
#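 S. cerevisiae expressing influenza A NS1, grown in glucose, washed, then diluted 1:100 into pH 6.0 -URA galactose medium with 23 nl compound. Growth recovery read as OD600; NS1-free strain serves as control.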
# LASV entry inh – Lassa virus entry inhibition | Lassa virus pseudotype entry inhibition, cell reporter; control for the full effect not named in the record | Potency, µM (titrated, usually from 37.9 µM), inactives show at the highest dose activity change, negative = inhibition, usual class: inhibitors | 1.2% of 300,000 active | AID 540256; active means well fitted inhibition curve with a large enough effect; inconclusive means small, poorly fitted or top-dose-only effect, or effect the other way; inactive means flat fitted curve, though single readings scatter; tested in HEK293 cells; note: % is set by controls: 0 for no effect and ±100 for the full control effect; nearly all actives have a fitted effect of over 50% in size; luciferase read-out
# SARS PLpro yeast – inhibitors of SARS-CoV papain-like protease in yeast; Potency, µM (highest dose often 32.9 µM), for the others: at the top dose activity, positive = growth rescue; 0.19% of 330,000 active; S. cerevisiae expressing SARS-CoV PLpro, growth rescue; control for the full effect not named in the record; active means well fitted rising curve with a large enough effect; inconclusive means small, poorly fitted or top-dose-only effect; inactive means no such curve, though single readings can be large or run the other way; note: 0% is about no effect; nearly all actives have a fitted effect of over 55% in size; growth read by luminescence after 48 h
# * = called active by the depositor; u = inconclusive; x = not tested or not shown; & = joins results of further samples; [ ] = another dose, or the depositor's remark. Unless noted, calls come from the whole dose curve; as a rule, active = well fitted curve in the direction sought with a large enough effect; inconclusive = small, poorly fitted or top-dose-only effect, or another doubt; inactive = no such curve, though single readings can be large; an effect the other way counts as inactive or inconclusive. Potency is the fitted concentration of half-maximal effect.
# The line under a structure holds: Cruzain inh Det | Marburg entry inh | RE007 growth inh | 2A StopGo | Cruzain noTriton | NS1 inh | LASV entry inh | SARS PLpro yeast
[1] CCc1nn2c(=O)cc(COC(=O)c3ccc4c(c3)OCO4)nc2s1
 : -2.0% | x | x | 13.4% | -4.5% | x | 7.2%[46.1 µM] | x
[2] CCOC(=O)c1cccc(NC(=O)CSc2nnc(C3CCCCC3)n2C)c1
 : -2.8% | 12.3% | -2.4% | -8.8% | 13.5% | -7.9% | 6.0% | 1.2%
[3] Cc1ccc(NC2CCCN(C(=O)CCN3CCOCC3)C2)cc1C (stereo not given)
 : x | x | -2.2% | -9.7% | x | u | x | 2.4%
[4] COc1ccccc1-n1c(N)cc(=O)nc1SCC(=O)Nc1cc(C)on1
 : x | 29.9%[46.1 µM] | 5.3% | -8.9% | x | x | -0.3% | -0.3%
[5] COc1ccc(Cl)cc1C(=O)Nc1cccnc1Cl
 : x | x | -9.4% | 28.3% | x | -13.7% | x | 6.1%
[6] O=C(Nc1ccc(N2CCOCC2)cc1)C1CC(=O)N(c2ccc(Cl)cc2)C1 (stereo not given)
 : x | 2.4% | 2.7% | -11.7% | x | x | -1.9% | 0.3%
[7] CC(=O)c1ccc(OCC(O)CN2CCC(C)CC2)cc1 (stereo not given)
 : 5.1% | x | -11.7% | -21.1% | 6.4% | -8.1% | x | -1.0%
[8] COc1ccccc1NC(=O)CN(Cc1ccco1)C(=O)c1ccc(N2CCCC2=O)cc1
 : x | 8.2% | -17.9% | -4.8% | x | x | -20.0% | 0.4%
[9] Cc1nc(NCCNC(=O)c2ccco2)c2c(C)c(C)sc2n1
 : -2.4% | -22.6%[46.1 µM] | 2.9% | u | -14.4% | -17.5% | 1.8% | -1.3%
[10] CCC(CC)C(=O)OCC(=O)Nc1cccc(S(=O)(=O)N(C)c2ccccc2)c1
 : x | u | -3.8% | -11.0% | x | x | -7.9% | -1.8%
[11] Cc1cccc(NC(=S)NC2CC3CCCC(C2)N3Cc2cccs2)c1 (stereo not given)
 : -0.9% | 1.64µM* | -12.3% | x | -5.4% | -10.6% | u | 6.9%
[12] COc1ccc(S(=O)(=O)N2CCCN(CC(=O)Nc3ccc4c(c3)OCO4)CC2)cc1
 : 0.2% | 1.1%[46.1 µM] | u | u | -0.6% | -7.6% | 0.3% | -3.9%
[13] CN(C)C(=O)/C(=C/c1ccc(-c2cccc([N+](=O)[O-])c2)o1)NC(=O)c1ccccc1
 : x | -5.7% | 5.6% | -23.5% | x | 18.7% | u | 0.0%
[14] NC1=C(c2ccc(F)cc2)C(=O)CS1
 : u | 12.2% | 12.2% | -19.1% | 15.8µM* | 2.8% | 8.6% | 1.3%
[15] Cc1ccc(-c2ccc(=O)n(CCC(=O)NCCN3CCCCC3C)n2)cc1 (stereo not given)
 : -0.7% | -0.4% | -0.3% | -3.0% | -4.5% | -8.8% | 10.5% | 3.9%
[16] CC(=O)c1ccc(-c2ccc(/C=C(/Sc3n[nH]c(C)n3)C(=O)O)o2)cc1
 : x | x | 6.5% | -18.8% | x | 2.2% | x | 0.1%
[17] CCN(CC)S(=O)(=O)c1ccc(O)c(C(=O)OCC(=O)N(C)Cc2ccccc2)c1
 : -7.6% | 0.0% | 2.5% | -15.3% | 18.1% | -4.9% | 0.4% | 1.7%
[18] C[C@H]1CCC[C@@]2(O[C@@H](CCO)C[C@@H](O)[C@@H]2O)O1
 : x | x | 2.7% | -12.8% | x | u | x | 1.3%
[19] CC1CCC2(CC1)NC(=O)N(NC(=O)CCl)C2=O (stereo not given)
 : x | -19.8%[46.1 µM] | 2.1% | -3.1% | x | -0.7% | 6.4% | -1.4%
[20] C=CCNc1nc(C(=O)OCC(=O)Nc2c(Cl)cccc2C(F)(F)F)cs1
 : x | -5.9% | 3.0% | -4.9% | x | x | 11.5%[46.1 µM] | 1.4%

# Reprinted from the part before: 3 entries; new compounds follow.
# The line under a structure holds: Cruzain inh Det | Marburg entry inh | RE007 growth inh | 2A StopGo | Cruzain noTriton | NS1 inh | LASV entry inh | SARS PLpro yeast
[18] C[C@H]1CCC[C@@]2(O[C@@H](CCO)C[C@@H](O)[C@@H]2O)O1
 : x | x | 2.7% | -12.8% | x | u | x | 1.3%
[19] CC1CCC2(CC1)NC(=O)N(NC(=O)CCl)C2=O (stereo not given)
 : x | -19.8%[46.1 µM] | 2.1% | -3.1% | x | -0.7% | 6.4% | -1.4%
[20] C=CCNc1nc(C(=O)OCC(=O)Nc2c(Cl)cccc2C(F)(F)F)cs1
 : x | -5.9% | 3.0% | -4.9% | x | x | 11.5%[46.1 µM] | 1.4%
[21] COc1ccc(S(=O)(=O)N2CCN(C3Cc4ccccc4C3)CC2)cc1
 : -0.5% | -0.8% | x | -19.6% | 4.1% | -0.7% | -8.5% | 13.0%
[22] CC1=CC(C)(C)NC(=S)N1c1ccccc1C
 : x | u | 13.4%&-4.6% | -16.1%&-14.8% | x | x | -0.6%[46.1 µM] | 21.9%
[23] CCN(CC(=O)NCc1ccc(Cl)cc1)C(=O)CCc1ccccc1
 : x | x | -3.4% | 5.3% | x | -4.8% | x | -0.2%
[24] Cc1ccc(S(=O)(=O)c2nnn3c2nc(N2CCCC(C)C2)c2cc(Cl)ccc23)cc1C (stereo not given)
 : 0.1% | -15.0%[46.1 µM] | x | 14.5% | -0.6% | x | x | x
[25] c1ccc(C(CN2CCCCC2)Oc2ccccn2)cc1 (stereo not given)
 : x | -8.4%[46.1 µM] | -7.9% | -10.1% | x | x | 3.5%[46.1 µM] | x
[26] CC1CC(C)CN(C(=S)SCc2nc(N)nc(Nc3ccccc3)n2)C1 (stereo not given)
 : x | u | 35.1% | 0.0% | x | 10.8% | 2.8% | 0.4%
[27] O=C(NCCCN1CCCC1=O)c1cc(-c2ccc3c(c2)OCO3)nc2ccccc12
 : x | -22.7% | -1.4% | 3.4% | x | -6.3% | 1.6% | 0.3%
[28] O=C(Nc1ncc(Cc2ccccc2Cl)s1)C1CCCO1 (stereo not given)
 : -5.8% | u | -5.2% | 48.3%[activator] | -10.1% | -1.4% | u | -39.7%
[29] Oc1ccc2ccccc2c1/C=N/c1nccs1
 : -1.3% | -8.2% | -17.7% | -14.9% | -8.1% | -6.6% | -28.4% | -0.6%
[30] CC(=O)Nc1ccc(S(=O)(=O)Nc2cccn(Cc3ccc(C)cc3)c2=O)cc1
 : x | 0.7%[46.1 µM] | -1.4% | -22.0% | x | 3.2% | -24.1%[46.1 µM] | -1.2%

# Remaining list, next part
item | Compound | Cruzain inh Det | Marburg entry inh | RE007 growth inh | 2A StopGo | Cruzain noTriton | NS1 inh | LASV entry inh | SARS PLpro yeast
31 | O=C(CN1CCNCC1)Nc1ccc(Oc2ccccc2)cc1 | 6.1% | u | -17.5% | 4.1% | -7.3% | -3.3% | -6.2% | 6.1%
32 | COc1ccc(/C(O)=C2/C(=O)C(=O)N(c3ccccn3)C2c2ccc(OC)c(OC)c2)cc1 (stereo not given) | x | 4.9%[14.2 µM] | -13.2% | -24.6% | x | 1.3% | 18.7% | -0.1%
33 | COc1ccccc1N1CCN(C(=O)CSc2ccccc2)CC1 | 2.2% | -5.0% | 1.6% | -6.6% | 26.1% | -2.7% | -2.7% | 10.9%
34 | COc1cc(/C=C(\C#N)C(=O)Nc2ccccc2C(=O)O)cc(Cl)c1OC | x | -13.6%[46.1 µM] | 9.5% | 14.1% | x | -0.3% | 3.1% | -0.7%
35 | CCC(=O)Nc1ccccc1-c1nc2ccccc2n(CC(=O)c2ccc(Br)cc2)c1=O | -3.4% | -14.7%[46.1 µM] | x | -20.2% | -15.0% | x | 12.4%[46.1 µM] | x
36 | O=C1CSC2(N1)C1CC3CC(C1)CC2C3 (stereo not given) | x | -1.4%[46.1 µM] | -7.6% | -19.3% | x | -2.0% | u | 0.8%
37 | Cc1ccc(Cn2ccc(NC(=O)c3cc(-c4ccc(Br)cc4)on3)n2)cc1 | 3.5% | 3.0% | 12.8% | 12.6% | 3.98µM* | 8.0% | -1.9% | -6.0%
38 | NC(=O)C1CCN(C(=O)c2ccc3c(=O)n(Cc4cccc(Br)c4)c(=S)[nH]c3c2)CC1 | x | -28.3%[46.1 µM] | -9.2% | 10.5% | x | 27.4% | -21.0% | -3.2%
39 | Cc1cc(N2CCC(C(=O)NCCC(C)C)CC2)n2nc(C)c(-c3ccc(Cl)cc3)c2n1 | -0.9% | -0.2%[46.1 µM] | x | -7.2% | -0.6% | x | 23.1%[46.1 µM] | x
40 | O=C(NCc1ccccc1)c1c(O)c2ccccc2[nH]c1=O | x | 9.0% | -2.0% | -12.9% | x | -8.8% | u | -3.6%
41 | CN(Cc1cnccn1)Cc1c(C(=O)N2CCc3ccccc3C2)nc2ccc(Cl)cn12 | x | x | -12.5% | 14.1% | x | -4.5% | x | -0.4%
42 | CC(C)CNS(=O)(=O)c1ccc(CCC(=O)Nc2ccc3c(c2)OCO3)cc1 | -3.2% | 25.6%[46.1 µM] | 17.9% | 28.5% | -3.5% | 10.2% | 7.3% | 3.0%
43 | COc1ccc(C)cc1S(=O)(=O)N(C)CC(=O)N1CCCCCC1 | 4.1% | 4.0% | -8.6% | -1.8% | 3.8% | 1.8% | 17.7% | 3.3%
44 | Cc1ccc(NC(=O)C2CCCN2S(=O)(=O)c2ccc3nc(-c4ccccc4)[nH]c3c2)cc1F (stereo not given) | 2.4% | x | x | u | -4.5% | x | u | x
45 | CCOC(=O)CN1C(=O)S/C(=C/c2ccc(OC)c([N+](=O)[O-])c2)C1=O | -7.9% | 24.2% | 11.6% | -24.2% | 5.1% | -9.2% | -2.1% | -9.5%
46 | COc1ccc(C(=O)N(CN2CCCC2=O)c2ccc(C)cc2)cc1 | 6.8% | 3.4% | 4.1%[3.69 µM] | 19.2% | 5.7% | -2.5% | 0.6% | 3.1%
47 | CCN1CCN(S(=O)(=O)c2ccc(Cl)c(C(=O)NCCOc3ccc(C)cc3)c2)CC1 | x | 6.4% | -2.0% | -6.3% | x | x | u | 0.9%
48 | COc1ccc(CN2CCNC(=O)C2CC(=O)NCC2CCOCC2)c(C)c1C (stereo not given) | x | x | 0.9% | -4.1% | x | 2.6% | x | -2.9%

# Screening data: PubChem BioAssay, National Center for Advancing Translational Sciences (NCATS)
